Cruzain inh noDet = qHTS Assay for Promiscuous and Specific Inhibitors of Cruzain (without detergent); Cruzipain (Trypanosoma cruzi), P25779; purified cruzain, Z-FR-AMC fluorescence, no detergent; Potency, µM, for inactives: max response, negative = inhibition, actives largely listed as inhibitors; actives 2.3% (n = 200,000); AID 1476, 2009; active = well fitted curve in the direction sought with a large enough effect; inconclusive = small, poorly fitted or top-dose-only effect, or another doubt; inactive = no such curve, though single readings can be large; an effect the other way counts as inactive or inconclusive;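 note: plate controls were enzyme without inhibitor for no effect and buffer without enzyme for full effect; nearly all actives have a fitted effect of over 40% in size; top concentration of the series not given in the record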
Target sequence (P25779 123-467 limits assumed): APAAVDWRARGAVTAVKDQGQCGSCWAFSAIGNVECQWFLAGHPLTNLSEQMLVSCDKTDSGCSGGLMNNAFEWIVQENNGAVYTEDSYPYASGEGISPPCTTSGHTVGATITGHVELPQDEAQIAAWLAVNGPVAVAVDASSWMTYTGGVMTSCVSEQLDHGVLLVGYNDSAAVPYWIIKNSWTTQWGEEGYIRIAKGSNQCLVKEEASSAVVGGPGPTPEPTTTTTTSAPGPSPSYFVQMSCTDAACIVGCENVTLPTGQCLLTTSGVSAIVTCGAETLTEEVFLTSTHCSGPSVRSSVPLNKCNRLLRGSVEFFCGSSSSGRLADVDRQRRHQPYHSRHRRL
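Purified cruzain at 1.5 nM, pre-incubated 15 min with compound at room temperature in 100 mM sodium acetate pH 5.5, 5 mM DTT, 0.00005% Triton X-100. Reaction started with 2 uM Z-FR-AMC; AMC fluorescence increase over 60 s gives rate.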
Lassa entry inh = qHTS for Inhibitors of binding or entry into cells for Lassa Virus; actives 1.2% (n = 300,000); Potency, µM (series often up to 37.9 µM), inactives show top-dose activity change, negative = inhibition, most hits filed as inhibitors; Lassa virus pseudotype entry inhibition, cell reporter; control for the full effect not named in the record; active means well fitted inhibition curve with a large enough effect; inconclusive means small, poorly fitted or top-dose-only effect, or effect the other way; inactive means flat fitted curve, though single readings scatter; tested in HEK293 cells; note: % is set by controls: 0 for no effect and ±100 for the full control effect; nearly all actives have a fitted effect of over 50% in size; luciferase read-out
RE007 growth inh = qHTS Assay for Inhibitors of the HIV-1 protein Vpr. S. pombe RE007 Vpr strain, BacTiter-Glo ATP luminescence, 24 h; control for the full effect not named in the record. Potency, µM (highest dose often 92.2 µM), for the others: top-dose activity change, negative = less growth. actives 0.21% (n = 360,000); active = well fitted falling curve with a large enough effect; inconclusive = small, poorly fitted or top-dose-only effect; inactive = no such curve, though single readings can be large or run the other way;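 note: % is set by controls: 0 for no effect and ±100 for the full control effect; nearly all actives have a fitted effect of over 50% in size; the assay follows cell death caused by Vpr and the record does not say whether a fall means rescue or toxicity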
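Fission yeast RE007 carrying one integrated HIV-1 vpr copy, seeded at OD 0.01 in PMG+AL medium with 23 nL pinned compound. Grown 24 h at 30 degrees; viability read by BacTiter-Glo luminescence after 5 min.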
Marburg entry inh = qHTS for inhibitors of binding or entry into cells for Marburg Virus | Marburg virus pseudotyped entry inhibition, cell reporter; control for the full effect not named in the record; about a third of the inactives were read at about 46 µM | Potency, µM (doses to about 37.8 µM), for the others: at the highest dose activity change, negative = inhibition, hits mostly inhibitors | actives 1.8% (n = 300,000) | AID 540276, 2011; active = well fitted inhibition curve with a large enough effect; inconclusive = small, poorly fitted or top-dose-only effect, or effect the other way; inactive = flat fitted curve, though single readings scatter; tested in HEK293 cells; about a fifth of its hits are not listed in these tables; note: % is set by controls: 0 for no effect and ±100 for the full control effect; luciferase read-out
Cruzain inh Det = qHTS Assay for Promiscuous and Specific Inhibitors of Cruzain (with detergent) | actives 0.43% (n = 200,000) | Cruzipain (Trypanosoma cruzi), P25779 | Potency, µM, inactives show max response, negative = inhibition, hits mostly inhibitors | purified cruzain, Z-FR-AMC fluorescence, 0.01% Triton; active = well fitted curve in the direction sought with a large enough effect; inconclusive = small, poorly fitted or top-dose-only effect, or another doubt; inactive = no such curve, though single readings can be large; an effect the other way counts as inactive or inconclusive;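 note: plate controls were neutral wells for no effect and buffer without enzyme for full effect; nearly all actives have a fitted effect of over 40% in size; top concentration of the series not given in the record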
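Purified cruzain (1.5 nM final) was preincubated with compounds for 15 min at room temperature in 100 mM sodium acetate pH 5.5, 5 mM DTT, 0.01% Triton X-100. Reaction started with 2 uM Z-FR-AMC; AMC fluorescence change over 60 s gave activity.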
SARS PLpro yeast = qHTS of Yeast-based Assay for SARS-CoV PLP; S. cerevisiae expressing SARS-CoV PLpro, growth rescue; control for the full effect not named in the record; Potency, µM (highest dose often 32.9 µM), inactives show at the top dose activity, positive = growth rescue; actives 0.19% (n = 330,000); note: 0% is about no effect; nearly all actives have a fitted effect of over 55% in size; growth read by luminescence after 48 h
StopGo reporter = High Throughput Screening for Foot and Mouth Disease Virus Antivirals | human cells with a luciferase reporter of 2A StopGo recoding; control for the full effect not named in the record | Potency, µM (titrated, usually from 57.9 µM), for inactives: at the highest dose signal change, negative = less light | actives 1.2% (n = 410,000) | AID 1159524, 2015; active = well fitted falling curve with a large enough effect; inconclusive = small, poorly fitted or top-dose-only effect; inactive = no such curve, though single readings can be large or run the other way; tested in HEK293T cells; note: % is set by controls: 0 for no effect and ±100 for the full control effect; nearly all actives have a fitted effect of over 45% in size; luciferase light after 4 h
NS1 function inh = qHTS Assay for Inhibitors of Influenza NS1 Protein Function. Potency, µM (highest dose often 46.1 µM), for the others: at the highest dose activity, positive = more growth. S. cerevisiae slowed by influenza A NS1, growth recovery by OD600. actives 0.4% (n = 270,000); note: actives are rising curves; nearly all actives have a fitted effect of over 50% in size
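In this qHTS, NS1 from influenza A is expressed in budding yeast, where it slows growth. Cells are switched from glucose to 2% galactose medium (pH 6.0, -URA), treated with compound, and growth recovery is read at OD600.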
Numbers without * were called inactive; ? = inconclusive; · = not tested or not shown; [ ] = another dose, or the depositor's remark. Unless noted, calls come from the whole dose curve; as a rule, active means well fitted rising curve with a large enough effect; inconclusive means small, poorly fitted or top-dose-only effect; inactive means no such curve, though single readings can be large or run the other way. Potency is the fitted concentration of half-maximal effect. Hits appear at their usual frequency; any-hit rate near 4.6%.

SMILES	Cruzain inh noDet	Lassa entry inh	RE007 growth inh	Marburg entry inh	Cruzain inh Det	SARS PLpro yeast	StopGo reporter	NS1 function inh
CCCCN(C)CCCNC(=O)c1cc(Nc2ccc(OC)c(OC)c2)nc2ccccc12	·	·	-3%	·	·	-1%	?	2%
CCCCCCc1c(C)nc(-n2[nH]c(C)c(CCO)c2=O)[nH]c1=O	·	-5%	3%	·	·	0%	-4%	10%
Cc1cc(NC(=O)c2cccs2)ncc1NC(=O)c1cccc(F)c1	·	2%	6%	-6%	·	0%	69%[activator]	-9%
Cc1c(C(=O)O)sc(=S)n1CCOc1ccccc1	-4%	17%	4%	-13%	-3.8%	3%	·	-6%
Cc1noc(C)c1-c1nnc(-c2ccc(C(F)(F)F)cc2)o1	·	·	-15%	·	·	1%	28%	3%
Cc1cc(OCC(=O)Nc2ccc(S(=O)(=O)N3CCN(C)CC3)cc2)ccc1Br	·	?	-1%	?	·	12%	?	8%
CN(Cc1ccccc1F)C(=O)c1ccccc1Sc1ccccc1C#N	·	6%[46.1 µM]	-5%	19%[46.1 µM]	·	-5%	30%	4%
COc1cc(/C=C2/SC(=S)N(CCC(=O)Nc3ccccc3)C2=O)cc(OC)c1OC	·	-28%[46.1 µM]	8%	?	·	-6%	-20%	10%
CCN(CC)C(=S)NC(=O)Cc1ccccc1	·	0%[46.1 µM]	-2%	1%[46.1 µM]	·	-1%	41%[activator]	2%
COc1ccc(CCNc2nc(N3CCCCC3)nc(N3CCCCC3)n2)cc1OC	7%	?	-19%	?	-12%	-3%	-6%	-6%[9.22 µM]
CCOc1ccccc1N(CC(=O)NCCc1ccccc1)C(=O)CCC(=O)Nc1ccccn1	·	7%[46.1 µM]	8%	?	·	-3%	21%	-24%
CCCN(C(=O)c1cc(Cl)nc2ccccc12)C1CCS(=O)(=O)C1 (stereo not given)	·	5%	22%	-19%[46.1 µM]	·	5%	-21%	·
CCCc1nnc2n1N=C(c1ccc(OC)c(OC)c1)CS2	9%	-5%	10%	-4%	-4.8%	-13%	·	0%
COc1ccc2[nH]c(=O)c(CN(Cc3cccnc3)C(=S)NCC3CCCO3)cc2c1 (stereo not given)	·	-9%	-11%	-1%[46.1 µM]	·	-1%	-14%	-4%
C/C(=N\NC(=O)c1ccoc1C)c1cccnc1	-4%	2%	-2%	-3%	-0.3%	17%	11%	-1%
COc1cc(OC)cc(OCC(O)Cn2cnc(-c3ccccc3)c2)c1 (stereo not given)	1%	4%	9%	-14%	-8.7%	-2%	·	-24%
Cc1nc2ccccn2c1-c1ccnn1S(=O)(=O)c1ccc(F)cc1	·	·	-18%	·	·	0%	?	-3%
Nc1nc(-c2sc3nc4c(cc3c2N)CCCC4)nc(N2CCOCC2)n1	·	-6%	12%	?	·	-2%	1%	·
COc1ccccc1CCNC(=O)C1(c2cccs2)CCOCC1	2%	-26%[46.1 µM]	·	·	0.7%	·	-3%	·
COc1ccc([N+](=O)[O-])cc1NC(=O)Nc1ccc(OC)c(OC)c1	·	?	-20%	?	·	0%	35µM*	9%
COc1ccc(C(=O)/C=C/C(=O)N(Cc2ccccc2)C(C(=O)NC2CCCCC2)c2ccncc2)c(O)c1 (stereo not given)	28%	?	-19%	?	-5.7%	-29%	-12%	-1%
O=C(CSc1nnc(-c2ccccn2)n1Cc1ccco1)c1ccccc1	-7%	-6%	-16%	?	-4.9%	-2%	8%	-20%
CC(=O)N1SC(N)=NC1c1ccccc1 (stereo not given)	-5%	1%	13%	6%	0.3%	9%	5%	-1%
CCOc1ccc(S(=O)(=O)N(CC)CC(=O)N2CCOCC2)cc1C	·	-25%	13%	15%[46.1 µM]	·	-3%	12%	5%
Cc1ccc(S(=O)(=O)n2nc(-c3ccco3)nc2N)cc1	·	11%	9%	0%[46.1 µM]	·	1%	4%	-3%
CCOC(=O)C1(CCCc2ccccc2)CCN(C(=O)C(C)n2cncn2)CC1 (stereo not given)	·	?	7%	?	·	0%	-2%	-6%
CC(=O)c1ccc(NC(=O)C2CC(=O)N(C(C)C)C2)cc1 (stereo not given)	·	8%[46.1 µM]	2%	0%[46.1 µM]	·	0%	-7%	5%
CCN(CC(=O)N1CCOCC1)S(=O)(=O)c1ccc(Cl)cc1	·	15%	10%	28%	·	21%	-5%	4%
O=C(O)c1ccc(COc2ccccc2[N+](=O)[O-])o1	7%	2%	3%	-16%	-6.7%	-20%	-7%	-6%
CCOC(=O)C1CCN(C(=O)C2CCN(S(=O)(=O)c3c(C)noc3/C=C/c3ccc(C)cc3)CC2)CC1	?	?	·	·	-6.6%	·	-26%	·
COc1ccc(C(=O)OCCOc2ccccc2C(C)=O)c(O)c1	·	7%	30%	-1%[14.2 µM]	·	-2%	-16%	-1%
O=C(CSc1nnnn1C1CC1)Nc1cc(S(=O)(=O)N2CCCC2)ccc1Cl	·	-22%[46.1 µM]	-4%	?	·	0%	-13%	·
O=C(CN1C(=O)/C(=C/c2ccccc2F)Sc2ccccc21)NCCCN1CCOCC1	·	·	5%	·	·	22%	-15%	10%
CC(C)OP(=O)(OC(C)C)C(Nc1ccccn1)c1ccc(F)cc1 (stereo not given)	6%	6%	12%	?	-3.8%	9%	-16%	-12%
Cc1ccc(Cl)c(NC(=O)CN(C)CC(=O)Nc2ccc(F)c(F)c2F)c1Cl	·	0%	-13%	-2%[46.1 µM]	·	3%	-15%	·
COc1ccc(-c2coc3c(CN4CCOCC4)c(O)ccc3c2=O)cc1	·	·	2%	·	·	-7%	15%	-11%
Cc1ccc(NC(=O)c2cc(-c3ccc(C)o3)nc3ccccc23)nc1	-2%	?	?	-7%	-7.3%	-24%	·	-100%
Cc1cc(C)c2[nH]c(C(=O)Nc3ccc(F)cc3Br)cc2c1	·	13%	1%	7%	·	6%	19%	9%
Cc1cc(C)n(CC(O)CN2C(=O)NC(C)(C)C2=O)n1 (stereo not given)	-4%	0%	-2%	-1%	4.0%	6%	24%	1%
CC(CNC(=O)CCc1ccccc1)NC(=O)CCc1ccccc1 (stereo not given)	·	-1%	-2%	7%[46.1 µM]	·	·	-2%	·
O=C(CCCc1nc(-c2ccccc2)no1)NCc1cccnc1	2%	-4%	-1%	-2%	2.0%	7%	?	?
Cc1cc(Cl)cc(C)c1OCC(=O)O	-10%	23%	13%	-12%[46.1 µM]	-3.3%	1%	-8%	1%
O=C(O)CCc1ccc(-c2ccc(Cl)cc2)n1CCC(=O)O	12%	14%	-1%	6%	0.0%	-5%	·	?
O=[N+]([O-])c1ccc(NNC(=S)Nc2ccccc2)cc1	-13%	-1%	22%	?	1.7%	-30%	-1%	-80%
O=C(c1cccs1)N1CCC(c2nc3ccccc3s2)CC1	-14%	-4%	-14%	-6%	-4.3%	-7%	?	-48%
Clc1cccc(CNCCNCc2cccc(Cl)c2)c1	·	-24%	4%	?	·	-2%	4%	0%
CCn1c(=O)cc(SCC(=O)NCC2CCCO2)c2ccccc21 (stereo not given)	-8%	-45%[14.3 µM]	-10%	?	3.1%	-3%	4%	5%
Cc1ccc(C(C)C)c(OCC(=O)NS(=O)(=O)c2ccc(Cl)cc2)c1	·	-9%	10%	?	·	2%	-11%	-19%
COc1ccc(C(CC(=O)NCCN2CCOCC2)NS(=O)(=O)c2ccc(C)cc2)cc1 (stereo not given)	-6%	10%	-8%	16%	3.8%	4%	·	-7%
Cc1[nH]c2ccccc2c1C(=O)CSc1cccc[n+]1[O-]	·	0%	0%	-2%[46.1 µM]	·	0%	-7%	6%
CCOC(=O)c1nnn(-c2nonc2-n2cccc2)c1CN1CCCCC1	-5%	-3%	0%	4%	-0.2%	-19%	-18%	-15%
O=C(O)CCC(=O)N1CCOc2ccc(Cl)cc21	-9%	0%	4%	1%	2.8%	0%	-10%	9%
CC1(C)CC(=O)C(=CN2CCN(C(=O)c3ccco3)CC2)C(=O)C1	-6%	7%	-4%	-9%	-3.3%	9%	-18%	6%
CCN(CC)Cc1oc(CO)cc(=O)c1O	·	-13%	-8%	1%[46.1 µM]	·	?	8%	7%
Cn1c(=O)c2cc(S(=O)(=O)NCCC(=O)N3CC=C(c4ccccc4)CC3)ccc2n(C)c1=O	?	-9%[14.3 µM]	-6%	?	3.0%	-8%	-17%	-4%
O=C(Cc1ccccc1)OC(COCc1ccccc1)CN1CCOCC1 (stereo not given)	4%	5%	-11%	-3%[46.1 µM]	4.0%	0%	-15%	-5%
COc1ccc2[nH]cc(CCNC(=O)Cc3ccc(Br)cc3)c2c1	·	?	-4%	?	·	-4%	-8%	?
Cn1cc(C(=O)OCC(=O)Nc2ccccc2)c2ccccc21	·	-14%	-27%	-5%	·	-1%	?	·
CC1=C(C(=O)OC(C)C)C(c2ccco2)NC(=O)N1 (stereo not given)	9%	10%	-2%	15%	-0.1%	1%	-7%	-3%
Nc1nc2ccccc2n1CCOc1ccc(Cl)cc1	·	1%	-1%	?	·	-1%	-4%	-9%
Further compounds follow:
SMILES	Cruzain inh noDet	Lassa entry inh	RE007 growth inh	Marburg entry inh	Cruzain inh Det	SARS PLpro yeast	StopGo reporter	NS1 function inh
O=C1CCc2cc(S(=O)(=O)NCCC(=O)NC3CCN(Cc4ccccc4)CC3)ccc2N1	0%	10%	14%	-1%	1.0%	-2%	-15%	1%
Clc1ccc(CN2C3=NCCN3c3ccccc32)cc1Cl	-17%	-22%	1%	?	-2.3%	-1%	?	-54%
CCCCCn1c(N2CCN(Cc3ccccc3)CC2)nc2c1c(=O)[nH]c(=O)n2C	-3%	?	22%	-27%	4.5%	6%	-1%	-22%
C(=NOCCc1ccccc1)c1cccnc1	·	?	-16%	3%	·	·	45%[activator]	·

Source: PubChem BioAssay (National Center for Advancing Translational Sciences (NCATS))
